# Source: PubChem (National Center for Advancing Translational Sciences (NCATS))
# HSD17B inhib: blocks hydroxysteroid 17-beta dehydrogenase activity. recombinant HSD17B10, NADH fluorescence kinetic; many of its hits are not listed in these tables. Potency, µM (titrated, usually from 57.1 µM), for inactives: at the highest dose activity change, negative = inhibition, hits mostly inhibitors. 7.6% of 75,000 active. AID 893; active = well fitted inhibition curve with a large enough effect; inconclusive = small, poorly fitted or top-dose-only effect; inactive = no such curve, though single readings can be large or run the other way;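 also: the protocol describes HADH2 (HSD17B10) and not the HSD17B4 of the title; nearly all actives have a fitted effect of over 70% in size; most hits overshoot -100% by far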
#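 His-tagged E. coli-expressed HADH2 at 20 nM in 100 mM Tris-HCl pH 9.0 with 0.01 % Tween-20, preincubated 15 min with compound at room temperature. Reaction with 1 mM NAD+ and 90 uM beta-hydroxybutyryl coenzyme A; NADH fluorescence (360/450 nm) read kinetically over 4 min, last minus first point.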
# * = called active by the depositor; ? = inconclusive; & = joins results of further samples; [ ] = dose if it differs, or a comment. % is scaled to controls: 0 for no effect and ±100 for the full control effect; potency is read from the fitted curve at half-maximal effect. The list is partial; rates above refer to the full screens.
SMILES,HSD17B inhib
Cc1csc(NC(=O)c2cc3c(s2)CCC3)n1,-0.8%
Cc1cc(N2CCN(C(=O)c3ccco3)CC2)n2ncnc2n1,-5.6%
CS(=O)(=O)N1CCC[C@@]2(CCN(C(=O)Nc3cccc(C#N)c3)C2)C1,8.3%
O=C(O)CSc1nnc(CNc2ccc(Cl)cc2)n1Cc1ccccc1,-22.6%
COc1ccc(C2C(C(C)=O)=C(O)C(=O)N2CCCn2ccnc2)cc1OC (stereo unspecified),-0.8%
CN(C)C(=O)N1CCC(C(=O)NC2CCCCCCC2)CC1,4.8%
COC(=O)CC1C(C)(C)C(OC(C)=O)[C@@]2(O)C=C3C4CC(=O)OC(c5ccoc5)[C@]4(C)CCC3[C@@]1(C)C2=O (stereo partly specified),-0.8%
CCOC1(OCC)N=C(N)C2(C#N)C(c3ccc(NC(C)=O)cc3)C12C#N (stereo unspecified),-10.2%
CCC1=C(C[C@H]2NCCc3ccccc32)C[C@@H]2c3cc(OC)c(OC)cc3CCN2C1,10.0%[11.4 µM]
COc1ccccc1-c1nc(C#N)c(N2CCN(C(c3ccccc3)c3ccccc3)CC2)o1,3.98µM*
COc1ccc(NC(=O)CSc2nnc(-c3ccccc3C)n2N)cc1OC,3.8%
O=C(CCCn1c(=O)[nH]c2ccccc2c1=O)NC1CCCCCC1,?
O=C(Nc1nnc(C23CC4CC(CC(C4)C2)C3)s1)c1ccco1,-6.3%
O=C(NCc1cccs1)C1CCC(CNS(=O)(=O)c2cccs2)CC1 (stereo unspecified),-18.1%
CCCCOC(=O)C1Cc2ccccc2C(=O)O1 (stereo unspecified),1.1%
CCN1C(=O)C2C(c3ccccc3F)NC(Cc3ccc(O)cc3)(C(=O)OC)C2C1=O (stereo unspecified),-11.0%
COc1cccc(NC(=O)Cn2nnc(C(=O)Nc3ccccc3)c2N)c1,-8.9%
CCCCC(=O)Nc1ccc2c(c1)nc1n2CCSC1,-20.1%
O=C(Cn1cnc2c(cnn2-c2ccc(F)cc2)c1=O)N1CCCc2ccccc21,-2.3%
Cc1ccc(C(=O)NCc2cccs2)cc1S(=O)(=O)N1CCCCC1,-10.1%
COc1ccc(-c2nn3c(-c4cccc(C)c4)nnc3s2)cc1OC,1.2%
Cc1ccc(-c2csc3nnc(SCC(=O)Nc4cccc(C)n4)n23)cc1,-1.5%
c1ccc2cc(NCNc3ccc4ccccc4c3)ccc2c1,3.16µM*
Cc1sc2nc(SCC(=O)NCc3ccco3)[nH]c(=O)c2c1C,-4.1%
COc1ccc(C(=O)CSc2nc(C)cc(=O)[nH]2)cc1,5.2%

# An excerpt from above in order of length of the SMILES, largest number first.
SMILES,HSD17B inhib
CCC1=C(C[C@H]2NCCc3ccccc32)C[C@@H]2c3cc(OC)c(OC)cc3CCN2C1,10.0%[11.4 µM]
Cc1ccc(-c2csc3nnc(SCC(=O)Nc4cccc(C)n4)n23)cc1,-1.5%
CN(C)C(=O)N1CCC(C(=O)NC2CCCCCCC2)CC1,4.8%
CCCCOC(=O)C1Cc2ccccc2C(=O)O1 (stereo unspecified),1.1%

# The main list resumes, repeating the 2 entries before the break.
SMILES,HSD17B inhib
Cc1sc2nc(SCC(=O)NCc3ccco3)[nH]c(=O)c2c1C,-4.1%
COc1ccc(C(=O)CSc2nc(C)cc(=O)[nH]2)cc1,5.2%
Cc1cc2c(c(C)nn2-c2ccccc2)c(=O)o1,3.2%
O=C1c2cccnc2C(O)N1Cc1cccs1 (stereo unspecified),5.9%
CCOC(=O)Cc1csc(NC(=O)CCN2C(=O)c3ccccc3C2=O)n1,0.5%
CCn1c(O)c(/C=N/n2cnnc2)sc1=S,25.1µM*
CC(NC(=O)c1ccc(S(=O)(=O)N(C)C)cc1)c1ccccc1 (stereo unspecified),8.2%
CCOC(=O)c1[nH]c(C)c(C(=O)Nc2ccc(C)c(F)c2)c1C,5.8%
COc1ccc(S(=O)(=O)N(C)CC(=O)Nc2ccc(F)cc2)cc1,8.1%
CN(C)CCNc1oc(-c2ccccc2F)nc1C#N,31.6µM*
O=C(O)COc1ccccc1C1C2C(=O)N(c3ccccc3)C(=O)C2ON1c1ccccc1 (stereo unspecified),?
CN1CCNC(=O)C1CC(=O)O (stereo unspecified),7.3%
CC[C@@H](c1ccc2cc(O)ccc2c1)C(C)(C)C(=O)O,?
Cc1cc(C(=O)CSc2nncs2)c(C)n1-c1ccc2c(c1)OCO2,?
Cc1ccc(-c2c3c(=O)n(C)c(=O)n(C)c3cn2CCCN2CCOCC2)cc1,-1.7%
c1ccc2cc(OCCN3CCCC3)ccc2c1,1.1%
Fc1ccc(-c2nnc(Cc3nnc(-c4ccc(F)cc4)o3)o2)cc1,1.3%
COc1ccccc1NC(=O)Cc1nn(C)c(=O)c2ccccc12,-1.5%
O=CN1CCN(C2CC(=O)N(c3ccc4c(c3)OCO4)C2=O)CC1 (stereo unspecified),7.2%
O=C(NCc1ccc(F)cc1)C1CCCN(S(=O)(=O)c2cccnc2)C1 (stereo unspecified),-6.0%
Cc1ccc2c(c1)NCCO2,?
O=C(O)[C@H](Cc1c[nH]c2ccccc12)N1C(=O)c2ccccc2C1=O,1.8%[11.4 µM]
Nc1nc(=O)c2[nH]cnc2n1O,6.6%[11.4 µM]
CCOc1ccc2nnnn2n1,4.8%
COc1cccc(C(=O)OCc2ccccc2C#N)c1O,14.8%
O=c1c2c3c(sc2ncn1/N=C/c1ccco1)CCCC3,-7.8%
CN1CCN(c2ncnc3ccc(-c4cccc(NS(C)(=O)=O)c4)cc23)CC1,-2.8%

# Given with each value named: 3 of the compounds above.
> CCOC(=O)c1[nH]c(C)c(C(=O)Nc2ccc(C)c(F)c2)c1C
- HSD17B inhib: 5.8%

> COc1ccc(S(=O)(=O)N(C)CC(=O)Nc2ccc(F)cc2)cc1
- HSD17B inhib: 8.1%

> CN(C)CCNc1oc(-c2ccccc2F)nc1C#N
- HSD17B inhib: 31.6µM*

# New compounds follow
SMILES,HSD17B inhib
CCCOc1ccc(C2C(=O)N(C3CCCCC3)CC(=O)N2C2CC2)cc1OC (stereo unspecified),0.2%
COc1cc(S(=O)(=O)N2CCN(Cc3ccc4c(c3)OCO4)CC2)c(C)cc1C,7.9%
CCOC(=O)N1CCN(C(=O)CN(c2ccc3c(c2)OCO3)S(C)(=O)=O)CC1,4.6%
O=C1c2ccccc2C(=O)N1CCCc1nc2ccccc2c(=O)n1CCCn1ccnc1,-4.2%
COc1ccc(/C=N/O)cc1COc1ccc(NC(C)=O)cc1,2.8%
Cc1ccccc1OCc1nnc2n1CC(C)S2 (stereo unspecified),6.0%
Cc1noc(C)c1C(=O)N1CCC2(CC1)CN(c1ccccc1)C2,5.6%
Cc1c(NC(=O)COC(=O)C2CC3C=CC2C3)c(=O)n(-c2ccccc2)n1C (stereo unspecified),8.8%
Cc1ccccc1OCc1nc2ccccc2c(=O)n1/N=C/c1ccco1,5.0%
Cc1cccc(-n2c(N)cc(=O)nc2SCC(=O)NC2CCCCC2)c1,3.0%
CCCCc1c(O)nc(SCC(=O)c2ccccc2)[nH]c1=O,0.2%
O=C(NCCCN1CCCC1=O)c1ccc2c(c1)OCO2,14.5%
COC(=O)C(C)Sc1ccc2nnc(-c3ccc(F)cc3)n2n1 (stereo unspecified),25.1µM*
O=C(COc1ccc(S(=O)(=O)N2CCCC2)cc1)NCc1ccco1,-2.6%
O=C(NCc1ccoc1)c1ccc(NC(=O)c2ccccc2Cl)cc1,-9.8%
O=C(CSc1ccccn1)Nc1ccccc1F,8.2%
CSc1nsc(SC)c1NC(=O)OCCc1ccccn1,-0.9%
Nc1ccn([C@H]2O[C@H](CO)[C@@H]3[O][Sn]([c]4ccccc4)([c]4ccccc4)[O][C@H]32)c(=O)n1,5.8%[11.4 µM]
Nn1cc(-c2ccccc2)nc1SCC(=O)NC1CCS(=O)(=O)C1 (stereo unspecified),10.5%
COc1cccc(-c2nnn(CC(=O)Nc3ccc(C)cc3C)n2)c1OC,-2.3%
O=C(NC1CCN(C(=O)NCc2ccccc2)CC1)c1ccco1,5.5%
CCCn1c(=S)[nH]c2cc(C(=O)N3CCCC(C(=O)OCC)C3)ccc2c1=O (stereo unspecified),-3.9%
O=C(Nc1ccc2c(c1)OCO2)C1CCCN1C(=O)OCc1ccccc1 (stereo unspecified),1.1%
O=C(NCc1ccco1)C1CCN(S(=O)(=O)c2cccc3cccnc23)CC1,4.4%
Cc1cc2n(n1)C(c1c[nH]c3ccccc13)Nc1ccccc1-2 (stereo unspecified),?
# Later entries
SMILES,HSD17B inhib
CC(N)=NCCC[C@H](N)C(=O)O,-0.8%&4.7%
O=C(CN1C(=O)c2ccccc2C1=O)N1CCOCC1,10.3%
COc1ccc(NC(=O)[C@@H]2[C@@H]3C(=O)N(C4CCCCC4)C(=O)[C@@H]3C3c4ccccc4C=CN32)cc1 (stereo partly specified),-4.1%
CCOCC(=O)Nc1nc2ccc(OCC)cc2s1,-2.8%
NC[C@@H](O)CSCc1ccc(Cl)cc1,-6.0%[11.4 µM]
CCN1CCN(c2ccc(NC(=O)c3cccc4ncccc34)cc2)CC1,3.6%
CCOC(=O)N1CCN(c2cc(=O)n(Cc3ccc(F)cc3)c(=O)[nH]2)CC1,-4.7%
Cn1c(NC(=O)C(C)(C)Oc2ccc(Cl)cc2)cc(=O)n(C)c1=O,2.5%
COc1ccc2[nH]c(=O)c(CN(C(=O)NC3CCCCC3)C3CCCC3)cc2c1,6.3%
COC(=O)NC(c1ccccc1)C(C#N)C(=O)OC (stereo unspecified),5.7%[11.4 µM]
Clc1ccccc1-c1nnc2sc(-c3ccccn3)nn12,2.8%
CC(=O)Nn1cc2c(c1-c1ccccc1)c(=O)n(C)c(=O)n2C,?
Cc1cccc(N2CCN(Cc3c(C)n(C)n(-c4ccccc4)c3=O)CC2)c1C,-6.5%
Cc1nn(Cc2ccc(Cl)c(Cl)c2)c(C)c1NC(=O)c1cc(-c2ccc3c(c2)OCO3)on1,-7.6%
Cc1ccc2nc(C3CCN(C(=O)c4ccco4)CC3)[nH]c2c1,-13.2%
COc1ccc(-c2csc(N3CCN(Cc4ccc5c(c4)OCO5)CC3)n2)cc1,2.5%
CC(C)OC(=O)Cn1cnc2ccc(Br)cc2c1=O,-0.1%
CCCNC(=O)c1ccccc1NS(=O)(=O)c1ccc(OC)c(OC)c1,?
Cc1nn2cc(-c3ccc(N)cc3)nc2s1,-1.7%
CC(C)C(c1nnnn1C1CCCC1)N1CCN(c2ccccc2F)CC1 (stereo unspecified),11.5%
CCCCc1nc2ccccc2n2cc3c(=O)n(C)c(=O)n(C)c3c12,52.4%[activator]
COC(=O)c1ccc(Oc2nc(Nc3ccc(F)cc3)nc(N3CCCC3)n2)cc1,6.1%
CCCC(=O)N1c2ccccc2[C@@H](N(C(C)=O)c2ccccc2)C[C@H]1C,-11.6%
O=C1NC2(CCCCC2)N=C1c1ccccc1,12.2%
Cc1onc(-c2ccccc2)c1C(=O)Nc1ccc(S(=O)(=O)NC2=NCCCCC2)cc1,1.5%
# Additional entries.
SMILES,HSD17B inhib
COc1ccc(CN2CC(C(=O)N3CCOCC3)CC2=O)cc1 (stereo unspecified),9.4%
NC(N)=NC[C@H](N)C(=O)O,4.2%[11.4 µM]
CC(=O)N=c1sc2nc3ccccc3nc2n1N(C(C)=O)C(C)=O,?
Cc1c(C)n(C(=O)CN2CCN(c3ccccn3)CC2)c2ccccc12,-1.2%
CCCCNS(=O)(=O)c1cccc(S(=O)(=O)N2CCCC2)c1,3.8%
O=C(NC1CCCCC1)C(c1ccccc1)N(Cc1ccco1)C(=O)Cn1cnc2ccccc21 (stereo unspecified),-2.9%
COc1ccc(S(=O)(=O)N2CCCC(C(=O)NCc3ccncc3)C2)cc1Cl (stereo unspecified),-1.2%
COc1cccc(C2/C(=C(\O)c3c(C)nc4c(C)cccn34)C(=O)C(=O)N2CCCN(C)C)c1OC (stereo unspecified),7.6%
COc1cccc(C2C(C#N)=C(N)OC3=C2C(=O)CCC3)c1OC(=O)c1ccco1 (stereo unspecified),-6.1%
O=C1CC(N2CCN(c3cccc(C(F)(F)F)c3)CC2)C(=O)N1c1ccc(F)cc1 (stereo unspecified),-0.3%
COC(=O)c1sc(N2C(=O)c3oc4ccccc4c(=O)c3C2c2cccs2)nc1C (stereo unspecified),5.1%
Cn1c(SCC(=O)Nc2cccc(NC(=O)c3cccs3)c2)nnc1-c1ccncc1,-5.4%
Nc1nc(C(=O)N2CCOCC2)nn1C(=O)c1ccc(Cl)cc1,-14.6%
CCOc1ccc2[nH]c(=O)c(CN(CCCO)C(C)=O)cc2c1,31.6µM*
Cc1noc(C)c1S(=O)(=O)N1CCCC(C(=O)NCCc2ccccc2)C1 (stereo unspecified),1.7%
Cn1c(SCC(=O)NC2CC2)nnc1-c1ccco1,7.0%
COc1cc(C(=O)n2nc(C)cc2C)cc(OC)c1OC,-14.7%
Cc1cc(C(F)F)n2ncc(C(=O)NCc3ccccc3)c2n1,-2.5%
O=C(CSc1ccc(Cl)cc1)Nn1cnnc1,-1.6%
O=C(NCc1cccs1)c1ccc(N2CCCCC2)nc1,-4.8%
O=C(NCC(=O)N(CCN1CCOCC1)C(C(=O)NC1CCCC1)c1cccs1)c1ccco1 (stereo unspecified),-0.7%
N#Cc1ccc(CN2CCCC3(CCN(C(=O)c4csnn4)CC3)C2)cc1,3.8%
CCOC(C)OCC,-5.8%
CCn1c(C(Cc2ccccc2)NC(=O)COC)nc2ccccc21 (stereo unspecified),-0.2%
Cc1ccc(-c2csc(=S)n2CC(=O)OCC(=O)NCc2ccco2)cc1,-22.4%
Cc1cccc(NC(=O)CSc2nnc(CSc3nc(C)cc(C)n3)n2Cc2ccco2)c1,-10.7%
